Source: PubChem
HIV Env fusion: inhibitors of HIV-1 Env-driven cell-cell fusion, primary screen, HeLa-JRFL effector, CEM21 target cells, luciferase. inhibition, % at 12.3 µM. hit rate 1.1% among 360,000;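 active = mean replicate inhibition score of at least 50 and every replicate individually at or above 50; inconclusive = only one of the two criteria met; inactive = mean below 50 and not all replicates reaching 50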;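 also: 0% = plate neutral controls and 100% = maraviroc near 300 nM; one replicate is shown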
eIF4H FP inh: human eIF4H binding inhibitors, primary screen, translation initiation inhibitor project, biochemical, uHTS, fluorescence polarization | Eukaryotic translation initiation factor 4H (Homo sapiens), Q15056 | eIF4H fluorescence polarization binding assay | inhibition, % at 35 µM | hit rate 0.94% among 290,000 | AID 2012, 2009;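 active = 50% or more with normal probe brightness, or confirmed in later tests; inconclusive = above 50% with abnormal brightness, or retests that disagree; inactive = below 50% or failed in later tests; about a fifth of its hits are not listed in these tables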;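 also: calls also rest on retests at 20 µM and on dose response follow-up; 0% = protein and probe with vehicle and 100% = probe without protein; strong numbers were not always called active; many hits fall short of the cut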
CSC inhib: cancer stem cell viability inhibitors, primary screen, luminescence; hit rate 1.1% among 300,000; cancer stem cell-like cells viability; AID 2717, 2010; inhibition, % at 7.5 µM;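 active = mean at 75% or more and at least half the replicates too; inconclusive = mean and replicates disagree; tested in HMLE shEcad cells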;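 also: 0% = median of negative and 100% = median of positive control wells; the first replicate is given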
UUG fidelity: modulators of yeast start codon fidelity, primary screen, whole organism, S. cerevisiae, single point, plate reader. hit rate 0.13% among 350,000. S. cerevisiae UUG-firefly luciferase reporter, luminescence/redox ratio. activity score, % at 18.7 µM. AID 602363, 2012;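 active = replicate mean at a twofold rise or more, about +100% in these data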;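 also: firefly luciferase made from a UUG start codon reports start codon fidelity; reporter light over untreated wells divided by growth signal over untreated wells; some hits fall short of that in this replicate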
PABP FP inh: PABP poly(A) RNA binding inhibitors, primary screen, biochemical, fluorescence polarization, uHTS | Polyadenylate-binding protein 1 (Homo sapiens), P11940 | inhibition, % at 35 µM | hit rate 1% among 290,000;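 active = 50% or more with normal probe brightness, or confirmed in later tests; inconclusive = above 50% with abnormal brightness, or retests that disagree; inactive = below 50% or failed in later tests; about a fifth of its hits are not listed in these tables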;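 also: calls also rest on retests at 20 µM and on dose response follow-up; controls were probe without protein and protein plus probe with vehicle; some compounds called inactive have numbers as strong as hits; many hits fall short of the cut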
Target sequence (P11940 whole entry, looked up): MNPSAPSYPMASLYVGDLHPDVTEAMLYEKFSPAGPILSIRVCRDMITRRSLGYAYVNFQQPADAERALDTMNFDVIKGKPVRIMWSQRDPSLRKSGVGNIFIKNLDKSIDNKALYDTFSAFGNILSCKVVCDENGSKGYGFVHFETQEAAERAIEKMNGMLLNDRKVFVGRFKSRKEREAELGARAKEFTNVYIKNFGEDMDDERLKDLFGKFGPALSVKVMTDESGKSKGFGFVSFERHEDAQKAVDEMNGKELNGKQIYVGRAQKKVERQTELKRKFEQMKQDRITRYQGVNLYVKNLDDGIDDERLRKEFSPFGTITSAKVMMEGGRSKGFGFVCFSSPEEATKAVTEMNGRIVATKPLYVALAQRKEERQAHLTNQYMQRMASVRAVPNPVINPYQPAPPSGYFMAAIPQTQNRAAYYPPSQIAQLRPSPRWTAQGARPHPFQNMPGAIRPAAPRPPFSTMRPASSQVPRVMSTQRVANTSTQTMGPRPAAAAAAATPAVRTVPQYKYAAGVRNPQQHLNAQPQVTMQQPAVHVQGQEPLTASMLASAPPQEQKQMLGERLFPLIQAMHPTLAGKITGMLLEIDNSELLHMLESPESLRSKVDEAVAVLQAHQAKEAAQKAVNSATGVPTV
Rce1 inh: yeast Rce1p protease inhibitors, primary screen, biochemical, fluorescence, cell-free homogeneous | CAAX prenyl protease 2 (Saccharomyces cerevisiae (strain ATCC 204508 / S288c)), Q03530 | yeast membranes, quenched prenylated peptide cleavage fluorescence | calls only | hit rate 0.27% among 290,000 | AID 2563, 2010;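 active = fall in fluorescence gain of 50% or more versus controls, with final raw signal at or below 3038400; inconclusive = same 50% fall but final raw signal above 3038400; inactive = fall in fluorescence gain under 50%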;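 also: plate controls were neutral control wells for no effect and wells lacking membranes for full effect; tested at 10 µM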
MT1-MMP act inh: blockers of MT1-MMP proenzyme processing, primary screen, HT1080 RFP-PRO-GFP cells, GFP/RFP fluorescence | GFP/RFP ratio fluorescence, overnight; percent of plate control window, DMSO zero | GFP/RFP ratio change, % at 20 µM | hit rate 0.061% among 360,000 | AID 651647, 2012;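 active = GFP/RFP ratio change of at least 30% with cell ATP level not reduced by more than half and red fluorescence within 50% of control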; also: strong numbers were not always called active
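Test system: HT1080 cells expressing an RFP-PRO-GFP fluorescent reporter construct / Compound dosing: single-point 20 µM compound, 1% DMSO / Schedule: cells overnight before dosing, compound overnight, 37 °C, 5% CO2 / Evaluation: GFP/RFP fluorescence ratio / Control set: DMSO and RFP-L50D-GFP cell wells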
PABP FP inh retest: also measured in PABP FP inh; calls as there; inhibition, %; compound at 20 µM; confirmation repeats;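 mean of two retest wells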
MT1-MMP act inh RFP: second read-out of MT1-MMP act inh, no call of its own (marks repeat the call); RFP signal change, %; measured here: RFP expression control read;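 0 = vehicle wells; hits needed this value within 50% of zero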
Numbers without * were called inactive; i = inactive; u = inconclusive; x = not tested or not shown; + = active, no number; & = joins results of further samples; [ ] = dose if it differs, or a comment.

SMILES | HIV Env fusion | eIF4H FP inh | CSC inhib | UUG fidelity | PABP FP inh | Rce1 inh | MT1-MMP act inh | MT1-MMP act inh RFP | others
CC(C)CNC(=O)C1(C)CCCN1C(=O)Cc1cccc2ccccc12 (stereo unspecified) | -1 | x | x | -15 | x | x | -3 | -2
CCCCC(=O)c1ccc(O)cc1 | x | -9 | -17 | -13 | 4 | i | 0 | -6
CCCCCCCC(=O)NNC(=O)c1c(O)c2ccccc2n(CC)c1=O | 8 | 6 | 7 | x | 3 | i | 4 | 4
COc1ccc(C(=O)Nc2ccc(N3CCC(C)CC3)cc2)cc1Br | 13 | 6 | -6 | x | 5 | i | -7 | -3
COc1ccc(-c2oc3ncn(Cc4ccco4)c(=N)c3c2-c2ccc(OC)cc2)cc1 | x | 2 | 32 | -14 | -11 | + | -3 | -9
C[C@H]1CN([C@@H](C)CO)C(=O)c2cccc(NC(=O)C3CC3)c2O[C@H]1CN(C)CC1CCCCC1 | 4[16.7 µM] | x | x | -8&2 | x | x | 2 | 2
CC(=O)C1=C(c2ccccc2)NC(=O)NC1c1ccccc1OCC(=O)Nc1ccccc1 (stereo unspecified) | -19 | -4 | -11 | -15 | -7 | i | -5 | -8
COC(=O)c1sccc1NC(=O)c1c(C)c(-c2cccc(Cl)c2)nc2ccccc12 | 10 | -7 | 37 | -6 | 10 | i | -8 | -5
O=C(/C=C\c1ccco1)c1ccc(NC(=O)c2ccco2)cc1 | -19 | u | -8 | x | 53* | i | -3 | -1 | PABP FP inh retest=109*
CC(=O)Nc1ccc(S(=O)(=O)N2CCC(N(C)CCC(C)C)CC2)cc1 | 22 | 8 | -2 | -6 | 0 | i | -5 | 1
Cc1ccsc1C1Nc2ccc3ncccc3c2C2=C1C(=O)CC(C)(C)C2 (stereo unspecified) | 50 | -2 | 51 | -9 | 9 | i | -14 | -21
O=S(=O)(Nc1nc2ccccc2nc1N1CCc2ccccc2C1)c1ccc(Br)cc1 | -15 | 24 | 36 | x | -5 | x | -11 | 1
COc1cc2c(cc1OC)-c1cc(Nc3cccc(F)c3)nc(=O)n1CC2 | 16 | 2 | x | 13 | 11 | i | 5 | 3
Cc1nn(-c2ccc(Cl)cc2)c2sc(C(=O)N3CCN(c4ccccn4)CC3)cc12 | x | 0 | 10 | -22 | -3 | i | -1 | 2
CCOC(=O)N1C(=O)C2(CCCCC2)N(c2ccccc2Cl)C1=S | 6 | -3 | -12 | x | 16 | i | 2 | -1
Cc1ccc(CNC(=O)C2CCN(S(=O)(=O)c3ccc(Br)s3)CC2)cc1 | -7 | -10 | -15 | -12 | 0 | x | -5 | -3
CCCCSc1nc2ccccc2[nH]1 | -34 | -4 | -5 | x | -9 | i | 12 | -2
O=C(CSc1nnnn1-c1ccc(C(=O)O)cc1)NC1CCCCC1 | 2 | -2 | x | -12 | 4 | i | -3 | 1
O=S(=O)(Nc1ccc(S(=O)(=O)Nc2ncccn2)cc1)c1ccc(Cl)cc1 | -3 | -2 | -19 | -8 | 0 | x | 4 | 2
CCCN1C(=O)c2ccc(C(=O)Nc3nccs3)cc2C1=O | -3 | 5 | -5 | -20 | -4 | i | 3 | 4
COC(=O)C(C(C)=O)C1=C/C(=N\S(=O)(=O)c2ccc(C)cc2)c2ccccc2C1=O (stereo unspecified) | x | 6 | 17 | -1 | -7 | i | -126 | 9
COC(=O)c1ccccc1N=C(SC)N(C)C | x | 7 | x | -2 | 30 | i | -5 | -3
CCn1c(SCC(=O)NCc2ccco2)nnc1-c1c[nH]c2ccccc12 | 38 | 2 | -9 | -21 | -9 | i | 0 | -1
COc1ccccc1CNC(=O)COC(=O)Cn1cnc2ccccc21 | 3 | 7 | -7 | -12 | 20 | i | 1 | 6
Cc1cccnc1NC(=O)CCC(=O)c1cccs1 | 11 | x | x | -3 | x | x | -1 | 5
Cc1noc(C)c1NC(=O)N(C)C[C@@H]1Oc2ccc(NC(=O)CCC(F)(F)F)cc2CC(=O)N([C@@H](C)CO)C[C@@H]1C | -2[16.7 µM] | x | -10 | -8&-2 | x | x | -1 | 8
COC(=O)/C=C/c1ccc2c(c1)S(=O)(=O)N(c1cccc(OC)c1)[C@H]2CC(=O)OC | -14 | x | -4 | -9 | x | i | 2 | -5
Cc1ccc2c(c1)/C(=N/OC(=O)c1ccc(F)cc1)CCS2 | -20 | 1 | -10 | -6 | 1 | i | -3 | 7
CCN(CC)C(=S)SCC(=O)Nc1ncc2c(n1)CC(C)(C)CC2=O | -3 | -4 | 2 | -22 | 4 | i | -1 | -2
COc1ccc(C(=O)CSc2n[nH]c(-c3ccco3)n2)cc1 | -54 | 71* | x | -9 | 65* | i | 3 | 1
S=C(Nc1ccccc1)NC1CCN(Cc2ccccc2)CC1 | -13 | 4 | -15 | x | 5 | i | 3 | 6
CC1CCCCC1NC(=O)CN(C)S(=O)(=O)c1ccc2c(c1)CCC(=O)N2 (stereo unspecified) | 2 | -6 | -10 | 5 | 10 | i | -3 | 3
O=C(NCCN1CCCCC1)c1cc2ccccc2[nH]1 | x | 1 | -5 | -13 | -2 | i | 2 | 4
O=[N+]([O-])c1ccc(CN2CC(N3CCC(c4ccccc4)CC3)CS2(=O)=O)cc1 (stereo unspecified) | -29 | x | x | -8 | x | x | 1 | -10
CSC1=N/C(=C\c2ccc(C)s2)C(=O)S1 | x | 16 | -1 | -10 | 3 | i | -5 | 0
CC(C)(C)OC(=O)NCc1ccc(NC(=O)c2nc[nH]c2C(=O)NCCCNC(=O)c2[nH]cnc2C(=O)Nc2ccc(CNC(=O)OC(C)(C)C)cc2)cc1 | x | x | 114* | -8 | x | x | -23 | -21
C/C(=N\NC(=O)c1nnn(-c2nonc2N)c1-c1cccs1)c1ccc(O)cc1 | 5 | -3 | -4 | -3 | -6 | i | -9 | -5
NS(=O)(=O)c1ccc(NC(=S)NC(=O)c2ccc(Br)o2)cc1 | 3 | -18 | -5 | -20 | -5 | i | 1 | 2
COc1ccc(CCNc2nc3ccc(C)cc3n3cnnc23)cc1OC | -13 | -6 | -23 | -7 | -7 | i | -9 | -2
CCCCN(CC)CCCNC(=O)Cn1nc(Cc2ccncc2)c2ccccc2c1=O | -27 | -7 | x | -5 | -10 | i | 0 | 0

3 entries picked at random from those above:
SMILES | HIV Env fusion | eIF4H FP inh | CSC inhib | UUG fidelity | PABP FP inh | Rce1 inh | MT1-MMP act inh | MT1-MMP act inh RFP | others
COc1ccc(-c2oc3ncn(Cc4ccco4)c(=N)c3c2-c2ccc(OC)cc2)cc1 | x | 2 | 32 | -14 | -11 | + | -3 | -9
Cc1ccc2c(c1)/C(=N/OC(=O)c1ccc(F)cc1)CCS2 | -20 | 1 | -10 | -6 | 1 | i | -3 | 7
COC(=O)c1sccc1NC(=O)c1c(C)c(-c2cccc(Cl)c2)nc2ccccc12 | 10 | -7 | 37 | -6 | 10 | i | -8 | -5

Following part
SMILES | HIV Env fusion | eIF4H FP inh | CSC inhib | UUG fidelity | PABP FP inh | Rce1 inh | MT1-MMP act inh | MT1-MMP act inh RFP | others
Cc1ccc2nsnc2c1S(=O)(=O)NCCc1c(C)[nH]c2ccc(F)cc12 | 0 | -8 | -1 | 6 | -1 | i | 2 | 2
CCOP(=O)(OCC)C(NC(=O)NS(=O)(=O)c1ccc(C)cc1)c1ccccc1 (stereo unspecified) | -40 | -19 | -3 | -9 | 5 | i | 1 | 5
CCOC(=O)c1ccc(NC(=O)Cn2nnc(-c3ccc(C)cc3)n2)cc1 | x | 2 | -2 | -20 | -8 | i | 8 | 6
O=C(c1ccccc1)N1N=C(c2ccccc2O)CC1c1ccccc1 (stereo unspecified) | 2 | -7 | -6 | -1 | 12 | i | -1 | -5
Cc1oc(-c2ccc(Cl)cc2)nc1CN1CCCC(C(=O)NCCCN2CCOCC2)C1 (stereo unspecified) | -3 | -1 | 4 | -15 | -2 | i | 14 | 1
CSc1nc(SCCN(C)C)c2c3c(sc2n1)COC(C)(C)C3 | 8 | -10 | -11 | x | 2 | i | -5 | -3
CCOc1cc(/C=N\NC(=O)C2C(=O)NCC2c2ccccc2)ccc1OC (stereo unspecified) | 1 | 3 | -10 | -9 | -11 | i | -4 | 2
Cc1nc(Nc2nc3ccccc3o2)nc2c1CCC2 | -5 | 5 | 1 | -59 | 8 | i | 6 | -1
CC(=O)c1cccc(NC(=O)NNC(=O)c2ccc(-c3ccccc3)cc2)c1 | -3 | 0 | -4 | -19 | -2 | i | 4 | 2
COc1ccc(-c2nnc(SCC(=O)NCc3cccs3)n2C(C)C)cc1 | x | -10 | -13 | x | -5 | i | -2 | -4
O=C(CCN1C(=O)c2ccccc2C1=O)Nc1ccc(F)cc1 | -49 | 2 | 2 | 5 | 1 | i | 12 | 0
Cc1ccc(NC(=S)N(C)C)cc1C | 8 | -2 | 8 | -12 | 0 | i | -1 | 1
O=C(CC(O)(CC(=O)OCc1ccccc1)C(=O)OCc1ccccc1)OCc1ccccc1 | 10 | x | x | 24 | x | x | 0 | -7
CC(=O)c1cn(-c2ccc(Cl)cc2)c(=O)[nH]c1=O | 2 | -7 | -10 | -11 | 0 | i | -1 | 0
CN(C)c1ccnc(NCc2ccccc2)c1C#N | 17 | -3 | -6 | -9 | -7 | i | 2 | 3
COc1ccc(CN2CCC(C(=O)c3ccc(Cl)cc3)CC2)cc1 | 3 | 5 | -6 | -35 | -15 | i | -2 | 1
O=C(CN1CCCCCCC1)N/N=C/c1ccc(F)c(F)c1 | 2 | -2 | -5 | x | 0 | i | 7 | 4
CCCOc1cccc(C(=O)Nc2cccc3ncccc23)c1 | 0 | 0 | -1 | 4 | -1 | i | 4 | -10
O=[N+]([O-])c1ccc(Cl)c(/C=N/NC(=S)Nc2ccccc2)c1 | -221 | 3 | -13 | x | -2 | i | 6 | 2
Cn1c(=O)c(C(=O)NCCc2ccc(Cl)cc2)c(O)c2ccccc21 | -1 | -3 | 1 | -2 | 2 | i | -5 | 1
O=C(Nc1nnc(COc2ccc(Cl)cc2)s1)C1CCCO1 (stereo unspecified) | x | 0 | -3 | -11 | -1 | i | 6 | 3
O=C1CCC2c3[nH]c4ccccc4c3CCN12 (stereo unspecified) | -7 | x | x | -2 | x | x | 4 | 6
CC(C)NC(=O)C1CCN(C2CCN(C(=O)C3=CCCC3)CC2)CC1 | 4 | 14 | 1 | x | -2 | i | -11 | 1
COC(=O)Nc1sc2c(c1C(=O)NCc1ccco1)CCCC2 | -3 | 6 | 0 | -10 | 9 | i | 3 | 1
Cc1ccc(S(=O)(=O)N(C)CC(=O)N2CCN(Cc3ccc4c(c3)OCO4)CC2)cc1 | 4 | -9 | -9 | -6 | 9 | i | 1 | -5
Nc1ccc(Cc2ccc([N+](=O)[O-])cc2)cc1 | -50 | x | x | -25 | x | x | 1 | -2
O=S(Cc1ccc(Cl)cc1)CC(O)(c1ccccc1)c1ccccc1 (stereo unspecified) | -1 | 0 | 49 | -20 | -2 | i | 2 | -7
CC(C(=O)Nc1ccccc1)c1ccc(-c2ccccc2)c(F)c1 (stereo unspecified) | x | 0 | -2 | -12 | -1 | i | -5 | -27
